High-throughput results: PubChem BioAssay, Broad Institute
NOMO-1 viab – NOMO-1 AML cell viability reduction, primary screen, STK33 inhibitor project, CellTiter-Glo luminescence. NOMO-1 AML viability, 72 h. inhibition, % (test concentration not listed). 37,000 tested, 7.5% active. AID 2330, 2010;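 active = most replicates above 80%; inconclusive = exactly half above 80%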;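 note: wells of about 30 µL received 25 nL stock; 0% = median of vehicle wells and 100% = reference inhibitor level; the first replicate is given; inactives centre near 10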
Starred values were filed as active, the others as inactive; ? = inconclusive. These rows are one share of the data (hit frequency here may not be typical).

SMILES | NOMO-1 viab
CS(=O)(=O)N(CC(=O)NC1CC2CCC1C2)c1ccc(Cl)c(C(F)(F)F)c1 (stereo unspecified) | 24
Cn1c(SCC(=O)Nc2ccc(Cl)cc2)nnc1-c1ccc(Br)cc1 | 25
COc1ccc(S(=O)(=O)Nc2ccc3c(c2)C(=O)N([C@@H](C)CO)C[C@@H](C)[C@@H](CN(C)S(=O)(=O)c2cn(C)cn2)O3)cc1 | 14
O=C(CSC1CC(=O)N(c2ccccc2)C1=O)Nc1cccc(Cl)c1 (stereo unspecified) | -3
O=C(CSc1nnc(-c2cccnc2)n1C1CCCCC1)Nc1ccc(Cl)cc1 | 4
O=c1cc(CSc2nc3sc4c(c3c(=O)n2Cc2ccco2)CCC4)[nH][nH]1 | 16
Cc1ccc(-c2cn3c4ccccc4nc3n2CCN2CCOCC2)cc1 | -9
COc1ccc(S(=O)(=O)Nc2cccc3c2O[C@H](CN(C)S(=O)(=O)c2ccc(OC)cc2)[C@H](C)CN([C@H](C)CO)C3=O)cc1 | 20
Cc1ccc(S(=O)(=O)N(C)C[C@@H]2Oc3c(cccc3N(C)C)C(=O)N([C@H](C)CO)C[C@H]2C)cc1 | 6
C[C@H]1CN([C@@H](C)CO)C(=O)Cc2cc(NS(C)(=O)=O)ccc2O[C@H]1CN(C)S(=O)(=O)c1cccs1 | -16
C[C@H]1CN([C@@H](C)CO)C(=O)c2cc(NC(=O)C3CC3)ccc2O[C@H]1CN(C)S(=O)(=O)c1ccc(Cl)cc1 | 0
COc1cccc(N2C(=O)CC(SCC(=O)Nc3ccc4ccccc4c3)C2=O)c1 (stereo unspecified) | 23
CC(C)NC(=O)Nc1ccc2c(c1)C(=O)N([C@H](C)CO)C[C@H](C)[C@H](CN(C)Cc1ccncc1)O2 | 11
COC(=O)/C=C/c1cn(C2OCC(CO)C2O)c(=O)[nH]c1=O (stereo unspecified) | 4
C[C@H]1CN([C@@H](C)CO)C(=O)c2cccc(NS(C)(=O)=O)c2O[C@H]1CN(C)Cc1ccccc1 | 21
Cc1ccc(S(=O)(=O)Nc2ccc3c(c2)C(=O)N([C@@H](C)CO)C[C@@H](C)[C@@H](CN(C)Cc2ccc(C(F)(F)F)cc2)O3)cc1 | 98*
C[C@@H]1CN([C@H](C)CO)C(=O)Cc2cc(NC(=O)Cc3cn(C)c4ccccc34)ccc2O[C@@H]1CN(C)C(=O)Nc1ccccc1 | 23
Cc1ccc(NC(=O)CSc2n[nH]c(CC(C)C)n2)cc1 | 8
C[C@H]1CN([C@@H](C)CO)C(=O)Cc2cc(NC(=O)Nc3ccc(C(F)(F)F)cc3)ccc2O[C@@H]1CN(C)S(=O)(=O)c1ccccc1 | 5
C[C@@H]1CN([C@@H](C)CO)C(=O)c2cc(NS(C)(=O)=O)ccc2O[C@H]1CN(C)S(C)(=O)=O | 9
Cc1ccc(S(=O)(=O)Nc2cccc3c2O[C@@H](CN(C)Cc2ccncc2)[C@H](C)CN([C@@H](C)CO)C3=O)cc1 | 6
C[C@H](CO)N1C[C@H](C)[C@@H](CN(C)C(=O)Nc2ccc(C(F)(F)F)cc2)Oc2ccc(NC(=O)Nc3cccc4ccccc34)cc2C1=O | 45
Cc1noc(C)c1S(=O)(=O)Nc1cccc2c1O[C@@H](CN(C)C(=O)Nc1ccc(F)cc1)[C@@H](C)CN([C@@H](C)CO)C2=O | 12
C[C@H]1CN([C@@H](C)CO)C(=O)Cc2cc(NC(=O)Cn3cnnn3)ccc2O[C@@H]1CN(C)Cc1ccc(C(F)(F)F)cc1 | 41
COc1ccccc1NC(=O)CCC(=O)c1ccc(C)cc1 | 29
COc1cc2c(cc1-c1coc3cc(O[C@@H]4O[C@H](CO)[C@@H](O)[C@H](O)[C@H]4O)ccc3c1=O)OCO2 | -2
C[C@@H]1CN([C@@H](C)CO)C(=O)c2cc(N(C)C)ccc2O[C@H]1CN(C)Cc1ccc(Oc2ccccc2)cc1 | 44
COc1ccc(OCC(O)Cn2nc(C)cc2C)cc1 (stereo unspecified) | 8
C[C@H]1CN([C@@H](C)CO)C(=O)c2cccc(NC(=O)NC3CCCCC3)c2O[C@@H]1CN(C)Cc1ccc2c(c1)OCO2 | 34
O=c1cc(-c2ccccc2)oc2c(O)c(O)ccc12 | 101*
C[C@@H]1CN([C@H](C)CO)C(=O)Cc2cc(NC(=O)Nc3ccccc3)ccc2O[C@@H]1CN(C)S(=O)(=O)c1ccc(F)cc1 | 44
Cc1ccc(S(=O)(=O)Nc2ccc3c(c2)C(=O)N([C@@H](C)CO)C[C@H](C)[C@@H](CN(C)CC2CC2)O3)cc1 | -5
C[C@H](CO)N1C[C@H](C)[C@@H](CN(C)C(=O)Nc2ccc3c(c2)OCO3)Oc2c(NC(=O)Nc3ccc(F)cc3)cccc2C1=O | 0
C[C@H](CO)N1C[C@H](C)[C@@H](CN(C)C(=O)Nc2ccc(F)cc2)Oc2ccc(NC(=O)CCCCCC(=O)Nc3ccccc3N)cc2C1=O | 20
O=C1CC(N(Cc2ccco2)C(=O)Nc2ccc(F)cc2)C(=O)N1c1ccc(F)cc1 (stereo unspecified) | 9
COc1ccc(CN(C)C[C@@H]2Oc3c(NS(=O)(=O)c4c(C)noc4C)cccc3C(=O)N([C@H](C)CO)C[C@@H]2C)cc1 | 30
COc1ccc(CN(C)C[C@@H]2Oc3ccc(NS(=O)(=O)c4c(C)noc4C)cc3CC(=O)N([C@@H](C)CO)C[C@@H]2C)cc1 | 23
C[C@H](CO)N1C[C@H](C)[C@@H](CN(C)CC2CCCCC2)Oc2c(NC(=O)Nc3ccc(C(F)(F)F)cc3)cccc2C1=O | 121*
COc1ccc(CN(C)C[C@H]2Oc3ccc(NC(=O)C4CC4)cc3CC(=O)N([C@@H](C)CO)C[C@@H]2C)cc1 | 31
Cc1c(NC(=O)Cn2ccc([N+](=O)[O-])n2)c(=O)n(-c2ccccc2)n1C | -17
C[C@@H]1CN([C@H](C)CO)C(=O)Cc2cc(NC(=O)C3CCCCC3)ccc2O[C@H]1CN(C)S(=O)(=O)c1ccc(Cl)cc1 | 29
COc1ccc(NC(=O)N(C)C[C@@H]2Oc3ccc(NS(=O)(=O)c4ccc(OC)cc4)cc3C(=O)N([C@H](C)CO)C[C@H]2C)cc1 | -3
C[C@@H]1CN([C@H](C)CO)C(=O)c2cccc(NC(=O)C3CCOCC3)c2O[C@H]1CN(C)Cc1ccncc1 | -19
CCOC(=O)c1sc(N2C(=O)C(=O)C(C(=O)c3ccc(C)cc3)C2c2ccc(C)o2)nc1C (stereo unspecified) | 5
COc1ccc(NC(=O)N(C)C[C@@H]2Oc3ccc(NC(=O)Nc4ccc5c(c4)OCO5)cc3C(=O)N([C@H](C)CO)C[C@@H]2C)cc1 | 6
O=C(CCN1C(=O)c2ccccc2S1(=O)=O)Nc1cccc(Cl)c1Cl | 0
Cc1ccc(C(=O)N(CC(N)=O)CC(N)=O)cc1 | -3
C[C@H](CO)N1C[C@H](C)[C@H](CN(C)S(=O)(=O)c2ccc(F)cc2)Oc2c(NS(C)(=O)=O)cccc2C1=O | -11
COc1ccc(S(=O)(=O)N(C)C[C@H]2Oc3ccc(NC(=O)NC4CCCCC4)cc3CC(=O)N([C@H](C)CO)C[C@H]2C)cc1 | -1
C[C@@H]1CN([C@H](C)CO)C(=O)Cc2cc(NC(=O)Nc3ccc4c(c3)OCO4)ccc2O[C@H]1CN(C)S(C)(=O)=O | -20
C[C@@H]1CCCCO[C@H](CN(C)C(=O)Cc2ccccc2)[C@@H](C)CN([C@H](C)CO)C(=O)c2cc(NC(=O)Nc3cccc4ccccc34)ccc2O1 | 21
CC(C)NC(=O)Nc1ccc2c(c1)C(=O)N([C@H](C)CO)C[C@H](C)[C@H](CN(C)Cc1ccc3c(c1)OCO3)O2 | 93*
C[C@H]1CN([C@@H](C)CO)C(=O)c2cc(NC(=O)C3CC3)ccc2O[C@H]1CN(C)Cc1ccc(C(=O)Nc2ccccc2N)cc1 | 106*
COc1ccc(-c2nnc(SCc3csc(N)n3)n2C)cc1 | 19
COc1ccc(NC(=O)N(C)C[C@H]2OCCCC[C@@H](C)Oc3ccc(NC(=O)C4CCCCC4)cc3C(=O)N([C@H](C)CO)C[C@@H]2C)cc1 | -5
CN(C)c1nc(OCC(=O)Nc2ccc(Cl)cc2)nc(N(C)C)n1 | 39
Cc1noc(C)c1NC(=O)N(C)C[C@H]1Oc2c(NC(=O)c3cnccn3)cccc2C(=O)N([C@@H](C)CO)C[C@@H]1C | -13
C[C@@H]1CN([C@@H](C)CO)C(=O)c2cccc(NC(=O)CCCCCC(=O)Nc3ccccc3N)c2O[C@H]1CN(C)S(=O)(=O)c1cn(C)cn1 | 5
COC1OC2COC(c3ccccc3)OC2CC1O (stereo unspecified) | -25
COc1ccc(NC(=O)N(C)C[C@@H]2Oc3c(NC(=O)C4CCOCC4)cccc3C(=O)N([C@H](C)CO)C[C@H]2C)cc1 | 32

Structural class, those above containing a thiophene ring, fused or not (2)
SMILES | NOMO-1 viab
O=c1cc(CSc2nc3sc4c(c3c(=O)n2Cc2ccco2)CCC4)[nH][nH]1 | 16
C[C@H]1CN([C@@H](C)CO)C(=O)Cc2cc(NS(C)(=O)=O)ccc2O[C@H]1CN(C)S(=O)(=O)c1cccs1 | -16

Other records
SMILES | NOMO-1 viab
C[C@@H]1CCCCO[C@H](CN(C)Cc2ccccc2)[C@@H](C)CN([C@H](C)CO)C(=O)c2cc(NC(=O)Cc3ccccc3)ccc2O1 | -5
C[C@@H]1CN([C@H](C)CO)C(=O)Cc2cc(NC(=O)Nc3ccccc3)ccc2O[C@H]1CN(C)CC1CCCCC1 | ?
C[C@@H]1CCCCO[C@@H](CN(C)S(=O)(=O)c2ccc(F)cc2)[C@@H](C)CN([C@H](C)CO)C(=O)c2cc(N(C)C)ccc2O1 | 8
COc1ccc(C(=O)Nc2ccc(C(=O)NCc3ccco3)cc2)cc1 | 28
C[C@@H]1CN([C@@H](C)CO)C(=O)c2cc(NS(=O)(=O)c3ccccc3)ccc2O[C@@H]1CN(C)S(=O)(=O)c1ccccc1 | -2
Cc1noc(C)c1NC(=O)N(C)C[C@@H]1Oc2c(NC(=O)C3CCOCC3)cccc2C(=O)N([C@H](C)CO)C[C@H]1C | 9
C[C@H](CO)N1C[C@H](C)[C@H](CN(C)Cc2ccc(C(=O)Nc3ccccc3N)cc2)Oc2ccc(N(C)C)cc2C1=O | 111*
CNC(=S)C12CC3CC(CC(C3)C1)C2 | -12
C[C@H]1CN([C@@H](C)CO)C(=O)c2cccc(NC(=O)Nc3ccc(F)cc3)c2O[C@@H]1CN(C)Cc1ccc(Oc2ccccc2)cc1 | 43
O=C(Nc1ccccc1C(=O)N1CCOCC1)c1noc2c1CCCC2 | -1
C[C@@H]1CN([C@@H](C)CO)C(=O)c2cc(NC(=O)CCC(F)(F)F)ccc2O[C@H]1CN(C)Cc1ccc(Oc2ccccc2)cc1 | 65
CCC1(CC)C(=O)c2cc3ccccc3cc2C1=O | 27
C[C@H](CO)N1C[C@H](C)[C@H](CN(C)Cc2ccc(Cl)c(Cl)c2)Oc2ccc(NC(=O)Cn3cnnn3)cc2CC1=O | 40
Cc1noc(C)c1NC(=O)N(C)C[C@H]1Oc2c(NC(=O)Nc3ccc(F)cc3)cccc2C(=O)N([C@@H](C)CO)C[C@@H]1C | -10
C[C@H](CO)N1C[C@H](C)[C@H](CN(C)CC2CCCCC2)Oc2c(NC(=O)CCCCCC(=O)Nc3ccccc3N)cccc2C1=O | 63
COc1cccc(C(=O)NC(c2ccc(Cl)cc2)c2c(O)ccc3ccccc23)c1 (stereo unspecified) | 108*
O=C(O)CCC(=O)Nc1ccc(Br)cc1C(=O)c1ccc(Cl)cc1 | 0
COc1ccc(S(=O)(=O)Nc2ccc3c(c2)C(=O)N([C@H](C)CO)C[C@H](C)[C@@H](CN(C)CC2CCCCC2)O3)cc1 | 23
Cn1c(=O)c2c(nc(NCCN)n2C)n(C)c1=O | -12
CC(=O)Nc1ccc(-c2nnc(SCC(=O)Nc3cc(Cl)cc(Cl)c3)n2C)cc1 | 12
C[C@H]1CN([C@@H](C)CO)C(=O)c2cccc(NS(=O)(=O)c3ccccc3)c2O[C@H]1CN(C)Cc1ccc(C(=O)Nc2ccccc2N)cc1 | 120*
Cc1noc(C)c1NC(=O)Nc1cccc2c1O[C@@H](CN(C)C(=O)Nc1ccccc1)[C@H](C)CN([C@@H](C)CO)C2=O | -9
C[C@@H]1CN([C@H](C)CO)C(=O)c2cc(NC(=O)CCN3CCOCC3)ccc2O[C@@H]1CN(C)Cc1ccc(C(F)(F)F)cc1 | 11
C[C@H]1CN([C@@H](C)CO)C(=O)c2cc(NS(=O)(=O)c3cccs3)ccc2O[C@H]1CN(C)S(C)(=O)=O | -17
C[C@H]1CN([C@@H](C)CO)C(=O)Cc2cc(NC(=O)CCN3CCOCC3)ccc2O[C@H]1CN(C)Cc1ccc(C(=O)Nc2ccccc2N)cc1 | 132*

4 entries from above in another layout.
Molecule: COc1ccc(S(=O)(=O)Nc2ccc3c(c2)C(=O)N([C@H](C)CO)C[C@H](C)[C@@H](CN(C)CC2CCCCC2)O3)cc1
  NOMO-1 viab: 23

Molecule: Cn1c(=O)c2c(nc(NCCN)n2C)n(C)c1=O
  NOMO-1 viab: -12

Molecule: CC(=O)Nc1ccc(-c2nnc(SCC(=O)Nc3cc(Cl)cc(Cl)c3)n2C)cc1
  NOMO-1 viab: 12

Molecule: C[C@H]1CN([C@@H](C)CO)C(=O)c2cccc(NS(=O)(=O)c3ccccc3)c2O[C@H]1CN(C)Cc1ccc(C(=O)Nc2ccccc2N)cc1
  NOMO-1 viab: 120*
